Screening results from PubChem BioAssay.
YopH inh – inhibitors of Yersinia enterocolitica YopH tyrosine phosphatase | fluorescence Ex485/Em525 | inhibition, %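 (about 10 µM by stock and volumes)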 | 140,000 tested, 0.16% active;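 active = inhibition of 50% or more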;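 also: controls were vehicle for no effect and minimum signal wells for full effect; inactives centre near -20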
Mtb bLac sens – beta-lactam sensitization of Mtb H37Rv | M. tuberculosis H37Rv growth with meropenem, percent inhibition; hits of this screen are not shown here | inhibition, % at 25 µM | 330,000 tested, 0.27% active | AID 434955;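 active = about 74% or more and at least 40 points above the plate without the antibiotic, then above 30% in a dose series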;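 also: growth measured after seven days incubation then overnight dye step; 0% = bacteria only wells and 100% = bacteria with antibiotic; twin plates without the antibiotic show which effects depend on it; some results filed as inactive read as strong as hits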
Mtb growth – M. tuberculosis H37Rv growth inhibitors, H37Rv strain (AID 1626) | M. tuberculosis H37Rv growth inhibition; higher % means a stronger effect | inhibition, % at 10 µM; hits with a dose series show IC50 in µM | 220,000 tested, 0.95% active;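 active = confirmed in a dose series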;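 also: bacteria incubated seven days before Alamar blue readout; 0% = bacteria only wells and 100% = bacteria with antibiotic wells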
RecA splice inh – blocks M. tuberculosis RecA intein splicing. 290,000 tested, 0.75% active. AID 2221. inhibition, %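 (about 9 µM by stock and volumes)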. P9WHJ3. cell-free RecA intein splicing, fluorescence; in the data active = inhibition above about 30%;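 also: 0% = vehicle wells and 100% = reference inhibitor control wells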
Target sequence (P9WHJ3 whole entry, looked up, canonical isoform): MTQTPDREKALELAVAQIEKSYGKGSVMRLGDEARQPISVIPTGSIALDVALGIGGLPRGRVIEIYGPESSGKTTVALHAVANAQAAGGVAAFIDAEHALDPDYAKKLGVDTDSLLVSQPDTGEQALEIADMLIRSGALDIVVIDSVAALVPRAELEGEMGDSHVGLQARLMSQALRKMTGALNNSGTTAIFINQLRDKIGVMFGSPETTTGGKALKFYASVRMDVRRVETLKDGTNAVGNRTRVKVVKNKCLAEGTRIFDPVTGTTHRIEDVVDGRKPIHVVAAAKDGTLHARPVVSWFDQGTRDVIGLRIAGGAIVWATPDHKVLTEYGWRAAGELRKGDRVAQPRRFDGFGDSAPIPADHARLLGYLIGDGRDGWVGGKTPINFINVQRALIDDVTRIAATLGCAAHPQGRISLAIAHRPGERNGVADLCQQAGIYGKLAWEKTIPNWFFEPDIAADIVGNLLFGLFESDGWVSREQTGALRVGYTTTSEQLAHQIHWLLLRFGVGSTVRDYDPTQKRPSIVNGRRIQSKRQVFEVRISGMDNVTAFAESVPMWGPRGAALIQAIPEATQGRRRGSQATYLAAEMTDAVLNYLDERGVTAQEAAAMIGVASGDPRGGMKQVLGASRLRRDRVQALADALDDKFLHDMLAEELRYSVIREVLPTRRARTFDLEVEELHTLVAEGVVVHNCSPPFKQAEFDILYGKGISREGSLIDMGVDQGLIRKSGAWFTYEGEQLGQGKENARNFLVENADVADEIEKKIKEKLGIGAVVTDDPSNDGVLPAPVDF
Arbovirus inh – antivirals against arbovirus infection; arbovirus infection cell-based antiviral screen; inhibition, % at 10 µM; 200,000 tested, 0.37% active;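 active = inhibition from about 30%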;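 also: bluetongue infection of BSR cells; cell survival read as ATP light after 72 h; 0% = infected wells without compound and 100% = uninfected wells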
Arbovirus inh repeat – further read-out of Arbovirus inh, marked with its call; inhibition, %; measured here: 10K subset replicate screen; many hits read low in the repeat;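 first of two repeat runs on a subset; 0% = infected and 100% = uninfected wells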
Starred values were filed as active, the others as inactive; / = not tested or not shown. A portion of the library, so the mix of outcomes need not match the whole.

SMILES	YopH inh	Mtb bLac sens	Mtb growth	RecA splice inh	Arbovirus inh	others
O=C(Nc1cc(=O)[nH]c2nc(-c3ccc(Cl)cc3)nn12)c1ccccc1	/	86	80%	-4.2	/
O=C(CN1C(=O)c2ccccc2C1=O)NCC1CCCO1 (configuration not stated)	-44	-3	1%	0.6	7
CCOC(=O)c1ccc[n+](CC(=O)Nc2ccccc2OC(F)F)c1	/	2	1%	-1.9	-1
CCOc1ccc(NCC2CCOC(C)(C)C2)cc1 (configuration not stated)	-17	1	-1%	/	-9
Cc1ccccc1NC(=O)Cn1nc(-c2ccc(Cl)s2)ccc1=O	/	-2	/	-0.1	/
COc1cccc(C(C)NC(=S)NCc2ccc(Cl)cc2)c1 (configuration not stated)	/	-6	3%	6.3	14
Cc1nc2ccc(NC(=O)c3cccs3)cc2s1	/	14	/	-0.1	/
CSc1nnc(SCC(=O)N(C)c2c(N)n(Cc3ccccc3)c(=O)[nH]c2=O)s1	/	4	/	-1.7	/
CCOC(=O)N1CCN(c2nc(-c3ccc(Cl)cc3)cs2)CC1	-37	0	-8%	3.5	21
CC(C(=O)Nc1ncccn1)(c1ccccc1)c1ccccc1	/	2	6%	-1.6	-7
Cc1ccc(-n2ncc3c2CC(C)(C)CC3NC(=O)CN2CCCC2=O)cc1 (configuration not stated)	/	-8	/	0.7	/
CC1(C)CC(=O)C(N=Nc2ccc(-c3ccccc3)cc2)=C(O)C1	/	50	73%	-2.2	5
C1CN(c2nc3nonc3nc2N2C[C@H]3CC[C@H]2C3)CCS1	/	3	-3%	-0.9	7
COc1ccc(CNC(=O)C2=CC(c3ccc(OC)c(OC)c3)=NS(=O)(=O)N2C)cc1	/	0	/	2.1	/
CCN1CCn2c3c(c4cc(Cl)ccc42)CCCC31 (configuration not stated)	-33	72	7%	0.4	-6
C/C(=N\Nc1nc(C)cc(C)n1)c1ccc(C)o1	/	5	0%	-9.1	/
O=C(O)c1cccc(Cn2cccn2)c1	-15	-8	/	3.0	-1
Cc1ccc(CSCCNC(=O)c2ccc(N(C)S(=O)(=O)c3ccccc3)cc2)cc1	-10	-6	6%	6.2	7
Cc1ccc(CN(c2ccc(C(=O)Nc3cccnc3)cc2)S(C)(=O)=O)cc1	-14	-1	4%	0.8	3
NNC(=O)c1ccc(COc2cccc3cccnc23)cc1	/	-3	3%	1.5	-4
Cc1ccc2nc(SCC(=O)Nc3ccc(F)c([N+](=O)[O-])c3)[nH]c2c1	-35	-4	8%	0.2	7
Cc1ccc(-n2nc3c(N4CCC(C(=O)N5CCC(C(N)=O)CC5)CC4)nnc(C)c3c2C)cc1	/	-2	/	-1.5	/
COc1ccc(S(=O)(=O)Nc2ccc(O)c(Sc3ncn[nH]3)c2)cc1	-16	3	9%	-4.9	6
COC(=O)c1cc2c(C)nn(-c3ccccc3)c2s1	-29	1	3%	1.6	-2
CCc1ccc(CN/C=C/C(=O)c2ccc(Br)cc2)cc1	-18	1	-2%	-2.3	2
Cc1ccccc1N1CCN(CC(=O)NCc2ccc(Cl)cc2)CC1	/	9	/	4.7	/
CCOc1cc(S(=O)(=O)Nc2cc(C)cc(C)c2)ccc1Cl	-21	/	-2%	1.8	-33
CCOC(=O)COc1ccc2nsnc2c1Cl	-36	96	14%	/	17
COc1ccc2cc(C#N)c(Cl)nc2c1	/	3	-10%	-0.3	-2
CC(NC(=O)c1cn(C(C)c2ccccc2F)nn1)c1ccncc1 (configuration not stated)	/	-2	4%	-29	0
C/C(=N/OC(=O)C1CC12CCC2)c1ccc(Br)cc1 (configuration not stated)	/	3	-5%	7.3	4
CC(=O)c1sc2nsc(SCCN3CCCCC3)c2c1N	/	-5	-11%	-8.2	/
COc1cc(/C=C(\C#N)c2nc3ccccc3[nH]2)cc(OC)c1O	/	47	2%	/	-5
CC(=O)N1c2ccc(S(=O)(=O)NCCC(=O)Nc3ccc(OC(F)(F)F)cc3)cc2CC1C (configuration not stated)	/	5	/	-1.7	/
COC(=O)c1ccccc1NC(=O)CCNC(=O)Cn1cnc2ccccc2c1=O	-23	-3	-4%	-0.4	4
CCSc1nc2c(c(=O)[nH]1)C(c1ccc(C)cc1)C1=C(CCCC1=O)N2 (configuration not stated)	/	-8	-1%	-2.0	5
COc1cccc2cc(C(=O)N3CCCCCCC3)c(=O)oc12	/	-6	/	0.2	/
O=C(NNC(=O)c1cccs1)c1ccc(Cl)c([N+](=O)[O-])c1	-3	2	2%	2.3	2
O=CN1CCN(C(=O)c2ccc([N+](=O)[O-])cc2)CC1	-27	-1	2%	-2.0	10
COc1ccccc1CNCc1ccc(OC)c(OC)c1OC	32	1	-3%	-0.7	-2
Cc1ccc(C)c2nc3sc(C(=O)O)cc3cc12	/	-2	-5%	-1.8	4
CCOc1cc(S(=O)(=O)NCCCn2ccnc2)ccc1Cl	/	-2	/	-2.5	/
CCCCS(=O)(=O)Nc1ccc2cn[nH]c2c1	/	1	7%	5.8	-3
O=C(O)C1C2C=CC(C2)C1C(=O)Nc1cccc(C(=O)N2CCCCC2)c1 (configuration not stated)	-14	5	-6%	-0.5	13
CCCCCCCNC(=O)C1(CC2CC(c3cccc(Br)c3)=NO2)CCN(C(=O)C2CCCC2)CC1 (configuration not stated)	/	-5	/	0.5	/
O=C(CSc1cccc[n+]1[O-])Nc1ccc(C(F)(F)F)cc1[N+](=O)[O-]	/	-2	6%	-0.6	4
COc1cccc(CNC(=O)CCC2CCCN(C(=O)c3cccc4c(C)c(C)[nH]c34)C2)c1 (configuration not stated)	/	-12	8%	-1.3	-6
CN1CCSc2ccc(C(=O)Nc3cc(F)ccc3F)cc21	/	34	-1%	-8.7	/
CCOC(=O)c1c(/N=C/C2C(=O)NC(=S)NC2=O)sc(C)c1C	/	-8	-9%	-3.4	20
Oc1ccc(/C=N/N2CCN(C3c4ccccc4-c4ccccc43)CC2)c(O)c1	/	-2	14%	4.4	-39

Seven compounds picked at random from the list so far, as already listed:
SMILES	YopH inh	Mtb bLac sens	Mtb growth	RecA splice inh	Arbovirus inh	others
CCCCCCCNC(=O)C1(CC2CC(c3cccc(Br)c3)=NO2)CCN(C(=O)C2CCCC2)CC1 (configuration not stated)	/	-5	/	0.5	/
Oc1ccc(/C=N/N2CCN(C3c4ccccc4-c4ccccc43)CC2)c(O)c1	/	-2	14%	4.4	-39
O=C(CSc1cccc[n+]1[O-])Nc1ccc(C(F)(F)F)cc1[N+](=O)[O-]	/	-2	6%	-0.6	4
O=C(O)C1C2C=CC(C2)C1C(=O)Nc1cccc(C(=O)N2CCCCC2)c1 (configuration not stated)	-14	5	-6%	-0.5	13
CCCCS(=O)(=O)Nc1ccc2cn[nH]c2c1	/	1	7%	5.8	-3
Cc1ccc(C)c2nc3sc(C(=O)O)cc3cc12	/	-2	-5%	-1.8	4
CCOc1cc(S(=O)(=O)NCCCn2ccnc2)ccc1Cl	/	-2	/	-2.5	/

Additional compounds.
SMILES	YopH inh	Mtb bLac sens	Mtb growth	RecA splice inh	Arbovirus inh	others
CC(C)CN(C(=O)COC(=O)/C=C/c1cccs1)c1c(N)n(Cc2ccccc2)c(=O)[nH]c1=O	/	0	/	-1.2	/
CC1=Nc2ccccc2/C1=C\c1nc(-c2ccc(C(F)(F)F)cc2)oc1O	-12	99	1.7µM*	-2.3	11
Cc1ccc(NC(=S)NNC(=O)c2ccc(N3CCOCC3)c([N+](=O)[O-])c2)cc1C	-9	8	8%	1.1	-4
c1ccc(CNc2ncnc3c2cnn3Cc2ccccc2)cc1	35	4	-2%	2.3	-15
COC(=O)c1ccc(-c2ccc(/C=N/NC(=O)Cc3nnc(N)s3)o2)cc1	/	11	/	0.4	/
O=C(c1cc(Br)ccc1Cl)N1CCN(c2ccc(N3CCOCC3)nn2)CC1	/	-5	/	-9.5	/
CC12CCC(C(=O)N3CCOCC3)([C@H](Br)C1=O)C2(C)C (some centres not stated)	/	-6	/	-0.1	/
COc1ccc(/C(O)=C/C(=O)C(=O)Nc2c(C)n(C)n(-c3ccccc3)c2=O)cc1	-24	11	-1%	-1.7	-5
Cc1cccc(N2CCN(S(=O)(=O)c3ccc4c(c3)CC(=O)N4C)CC2)c1C	/	7	/	-2.6	/
Cc1cc(C)nc(SCC(=O)c2c(N)n(C)c(=O)n(C)c2=O)n1	-12	-14	/	0.3	-3
CCOc1ccc(C2c3cc(OC)c(OC)cc3CC(=O)N2c2ccccc2)cc1 (configuration not stated)	-25	-7	10%	4.0	-6
Nc1nc2ccc(O)cc2s1	-18	-5	-5%	-1.5	-7
COC(=O)CC1SC(=O)NC1=Nc1ccccc1 (configuration not stated)	-17	-1	-8%	-3.7	1	Arbovirus inh repeat=-1
CN(C)CCN(C(=O)c1ccc(N2C(=O)CCC2=O)cc1)c1nc2cc3c(cc2s1)OCCO3	/	-1	6%	-0.6	0
O=C(OCN1C(=O)c2ccccc2C1=O)c1ccco1	6	-4	0%	-2.2	3	Arbovirus inh repeat=-6
CS(=O)(=O)Nc1ccc2c(c1)OCC(=O)N2Cc1ccccc1	/	-13	/	4.0	/
O=[N+]([O-])c1ccc(Nc2nc(NCCO)nc(N3CCCC3)n2)cc1	/	8	7%	1.9	-7
Cc1c(NC(=O)NCCN2C(=O)C3C4C=CC(C4)C3C2=O)c(=O)n(-c2ccccc2)n1C (configuration not stated)	-15	-4	-2%	1.0	3	Arbovirus inh repeat=6
CCCCCCC(=O)N1C/C=C\C(c2ccc(OC)cc2)N(Cc2ccc(F)cc2)C(=O)[C@H]1Cc1ccccc1 (some centres not stated)	/	-4	20%	-0.4	/
O=C(CCNC(=O)c1ccco1)Nc1ccc(C(F)(F)F)cc1	/	-3	/	-2.1	/
CC(C)C(=O)N1CC(=O)Nc2ccc(F)cc2C1c1ccc(F)cc1 (configuration not stated)	/	3	/	-0.9	/
COC(=O)Nc1nn(Cc2ccccc2F)cc1Br	2	-6	4%	0.2	-1
NC(=O)C1CCN(C(=O)CCc2nc3ccccc3c(=O)[nH]2)CC1	1	/	-4%	0.1	11
C=CCOc1ccc(/C=C/C(=O)OCC(=O)N2CCCc3ccccc32)cc1	/	-10	/	1.2	/
COc1ccc(-c2csc3ncnc(N4CCN(S(=O)(=O)c5cccs5)CC4)c23)cc1	/	0	/	-0.4	/
Cc1cccn2c(=O)c3cc(C(=O)N4COCC4(C)C)n(C)c3nc12	-40	-7	/	-12	3
COc1cccc(-c2onc3ccc(C(C)=O)cc23)c1	/	10	/	-2.0	/
NC(=O)c1oc2ccccc2c1NC(=O)CN1CCCCC1	-35	-3	-4%	-1.9	-6
O=C(c1ccncc1)N(Cc1ccccc1)Cc1nc2ccccc2c(=O)[nH]1	-52	-6	-10%	-2.0	2
COc1ccc(Nc2nccc(-c3cccc(N)c3)n2)cc1	/	8	/	-0.1	/
CCCC(=O)N(c1ccc2oc(=O)sc2c1)S(=O)(=O)c1cccs1	-54	-5	0%	/	-8
NC(=O)c1cc(C(=O)c2cccc(Cl)c2Cl)c[nH]1	/	2	2%	-0.3	9
N#Cc1ccc(NC(=S)NC(=O)CCc2ccc(S(=O)(=O)N3CCOCC3)cc2)cc1	/	-3	-1%	3.2	2
O=C(CCCNS(=O)(=O)c1cccs1)N1CCN(c2cccc(Cl)c2)CC1	-28	-7	-3%	2.0	6
CCCC(C)NC(=S)NC(=O)c1cc(S(=O)(=O)N2CCOCC2)ccc1C (configuration not stated)	-17	61	-4%	2.3	5
CCOC(=O)CN1C(c2ccc(O)cc2)Nc2ccc(Br)cc2C1c1ccccc1 (configuration not stated)	-34	0	-4%	8.3	-41
Cc1occc1C(=O)NNC(=O)c1ccc(Br)o1	/	0	4%	-0.3	-3
NC(=O)Cn1c(=O)oc2ccccc21	-30	-2	-1%	0.1	-5
Cc1ccccc1NC(=O)C(Cc1ccccc1)n1cccc1 (configuration not stated)	/	51	6%	1.5	/
Fc1cccc(Cl)c1/C=C/c1cnc2ccccc2n1	/	1	/	-2.5	/
O=C(c1cc(-c2ccccc2)nc2ccccc12)N1CCOCC1	-8	-5	-4%	0.4	-1	Arbovirus inh repeat=3
O=C(Nc1ccccc1C(=O)NC1CCCC1)NC1CCCC1	-22	-11	-7%	-0.8	-9
COc1ccc(-c2[nH]ncc2CNC(C)Cc2cccc(C)n2)cc1F (configuration not stated)	/	5	1%	0.1	8
CNC(=S)N(Cc1ccc2c(c1)OCO2)C1CC(=O)N(c2ccc(F)cc2)C1=O (configuration not stated)	-23	2	-1%	-1.7	0
O=C(CNC(=S)N(Cc1ccccc1)Cc1cccnc1)NC1CC1	-12	5	-2%	-0.8	-1
COc1ccc(N/C=C\C(=O)c2ccc3c(c2)OCO3)cc1	11	96	77%	-1.9	-26
COc1ccc(/C(C)=N/Nc2nncc3ccccc23)cc1	/	7	/	13	/
